Screening data from PubChem.
Ecoli growth – blocks Escherichia coli growth | 0.21% of 330,000 active | OD600 absorbance (concentration not given with the values) | OD600, 23 h; hits give low values;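 active = OD600 absorbance below the run mean of sample wells minus 3.6 SD, in any replicate, cut at about 0.56 in these data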;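 note: stock transfer was 300 nL into about 60 µL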
FGF22 binding – shifts melting point of recombinant human FGF22. 1.5% of 340,000 active. calls only at 9.99 µM. recombinant FGF22 thermal shift, SYPRO orange fluorescence; percent of sucrose octasulfate shift, DMSO zero. AID 651658;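 active = melting point raised past a set limit in the mean and every replicate; inconclusive = no clear call; three in four hits are not shown here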
Target sequence (Q9HCT0 whole entry, looked up): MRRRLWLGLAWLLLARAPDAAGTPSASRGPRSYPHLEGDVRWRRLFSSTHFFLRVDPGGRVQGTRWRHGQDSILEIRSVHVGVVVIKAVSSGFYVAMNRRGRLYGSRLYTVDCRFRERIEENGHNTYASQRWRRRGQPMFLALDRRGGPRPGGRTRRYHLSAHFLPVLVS
Vif A3G – inhibitors of Vif binding to APOBEC3G peptide, primary screen, biochemical, TR-FRET, GST-Vif 1-94, biotin-A3G peptide, dose response retest (AID 1117319); TR-FRET GST-Vif / biotin-A3G peptide binding; higher % means a stronger effect; test concentration not given here; strong numbers were not always called active; inhibition, %; hits with a dose series show IC50 in µM; 0.57% of 260,000 active;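 active = above the screen mean plus three standard deviations and confirmed in dose response; inconclusive = results disagree or hit not tested in dose response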;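 note: Vif residues 1-94 fused to GST binding biotinylated APOBEC3G peptide 110-148; 0% = full assay without inhibitor and 100% = GST in place of GST-Vif; retest series ran down from 100 µM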
AF4-AF9 inh – inhibitors of human MLL-AF4/AF9 interaction | P42568 | inhibition, % at 10 µM | AlphaScreen, biotin-AF4 peptide binding to FLAG-AF9 | 0.47% of 350,000 active;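 active = every replicate reaching a set inhibition limit, whatever the replicate mean, cut at about 25% in these data; inconclusive = mean inhibition reaches that limit but some replicates miss it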;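 note: 0% = plate neutral control median and 100% = total signal loss; the record names both 10 and 1 µM as test concentration; the first replicate is given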
Target sequence (P42568 whole entry, looked up): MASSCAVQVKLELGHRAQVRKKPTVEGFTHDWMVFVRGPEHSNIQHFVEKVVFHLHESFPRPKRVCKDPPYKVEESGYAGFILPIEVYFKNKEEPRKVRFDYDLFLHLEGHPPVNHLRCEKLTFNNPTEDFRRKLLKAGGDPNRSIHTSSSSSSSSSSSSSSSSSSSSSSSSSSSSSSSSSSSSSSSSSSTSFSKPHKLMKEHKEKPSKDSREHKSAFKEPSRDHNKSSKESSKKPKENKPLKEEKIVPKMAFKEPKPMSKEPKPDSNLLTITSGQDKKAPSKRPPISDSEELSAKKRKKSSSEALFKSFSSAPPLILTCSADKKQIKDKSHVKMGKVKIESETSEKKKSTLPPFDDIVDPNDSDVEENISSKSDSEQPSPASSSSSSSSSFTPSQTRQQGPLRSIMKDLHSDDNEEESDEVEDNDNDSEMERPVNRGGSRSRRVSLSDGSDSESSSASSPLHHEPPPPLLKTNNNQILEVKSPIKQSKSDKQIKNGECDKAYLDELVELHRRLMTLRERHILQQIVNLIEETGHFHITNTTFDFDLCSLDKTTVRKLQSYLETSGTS
ALR inh – human ALR oxidase inhibition via reduced H2O2. P55789. purified ALR, DTT oxidation, H2O2 HRP-luminol luminescence. inhibition, % (no concentration beside the values). 3.8% of 290,000 active. AID 485317;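 active = mean and each replicate at 75% or more; inconclusive = only one of the two met; inactive = neither met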;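 note: stock transfer was 7.5 nL into about 7.5 µL; 0% = neutral wells and 100% = wells with inactivated enzyme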
Target sequence (P55789 whole entry, looked up): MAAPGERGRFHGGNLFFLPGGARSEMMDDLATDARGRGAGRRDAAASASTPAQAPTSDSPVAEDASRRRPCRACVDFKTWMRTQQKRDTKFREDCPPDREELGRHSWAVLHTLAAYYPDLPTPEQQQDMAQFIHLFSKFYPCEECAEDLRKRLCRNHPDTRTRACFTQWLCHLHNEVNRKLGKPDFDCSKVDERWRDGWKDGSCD
rRNA inh HTS – selective bacterial rRNA inhibition in E. coli | AID 720706 | GFP signal change (wild-type ribosome), % (concentration not given with the values) | 1.6% of 350,000 active | E. coli WT GFP vs humanized-ribosome RFP mutants, fluorescence, 24 h; hits give low values; DMSO median 0, no signal -100;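 active = significant combined selectivity score with lowered wild-type GFP, culture density cut under 30%, mutant RFP and density less affected; inactive = any of these conditions unmet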; note: one replicate is shown; some compounds called inactive have numbers as strong as hits
HNF4A DNA FP – change in binding of human HNF4 alpha to DNA; P41235; HNF4a-FITC DNA binding, fluorescence polarization, 1 h; activity change, % at 10 µM; 0.3% of 360,000 active; AID 1224865; in the data active = activity change above about 30%, passing the limit was not always enough;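 note: controls were the assay level and a saturating level of protein; the project sought stronger binding though the title names inhibitors; some compounds called inactive have numbers as strong as hits; positive values seem to mean higher polarization but the record does not say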
rRNA inh HTS OD600 – further read-out of rRNA inh HTS, marked with its call; OD600 change, %; measured here: OD600 growth;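 optical density of the mix in the first replicate; 0 = DMSO median and -100 = no signal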
rRNA inh HTS RFP – further read-out of rRNA inh HTS, marked with its call; RFP signal change, %; measured here: RFP humanized mutant strains;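 first replicate; 0 = DMSO median and -100 = no signal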
The depositor's hits bear a star; i = inactive; u = inconclusive; x = no result given; & = joins results of further samples. Not all compounds are listed. The share of hits here may be higher or lower than overall.

The line under a structure holds: Ecoli growth, FGF22 binding, Vif A3G, AF4-AF9 inh, ALR inh, rRNA inh HTS, rRNA inh HTS OD600, rRNA inh HTS RFP, HNF4A DNA FP
O=C1CSC(=Nc2ccc(O)cc2)N1c1ccc(O)cc1
  0.69, x, -1%, x, 99*, x, x, x, 2.0
COc1cccc(C(=O)NCCNc2nc3cc(C)cc(C)c3cc2C#N)c1
  x, i, x, 0.1, x, 3, 15, -3.1, 1.4
Cc1ccc2c(c1)cc(CN(Cc1ccco1)C(=O)N1CCOCC1)c1nnnn12
  0.63, i, -16%, 1.8, -3, 0, -2, -5.9, -3.6
CCC(=O)N(C)C[C@H]1Oc2ncc(-c3ccccc3C)cc2C(=O)N([C@@H](C)CO)C[C@H]1C
  x, i, x, -2.5, x, 4, 7, -2.6, x
Cc1cc(-c2ccccc2)nc(N2CCN(c3ccccn3)CC2)n1
  0.68, i, -6%, 3.8, -3, 13, 13, 0.9, -0.6
Cc1cccc(C)c1NC(=O)COC(=O)CSc1nnc(N)s1
  0.64, x, 14%, x, x, x, x, x, -0.4
Cc1ccnc(N2CCC(C(=O)Nc3ccc4c(c3)OCO4)CC2)n1
  0.73, x, -4%, x, -9, x, x, x, 1.8
COc1ccc(NC(=O)Nc2cccc3c2O[C@H](CN(C)Cc2ccncc2)[C@H](C)CN([C@H](C)CO)C3=O)cc1
  x, i, x, 1.3, x, 1, -2, -2.0, x
Cc1cnc(C(=O)Oc2c(C)ccc(C)c2C)cn1
  0.67, x, -5%, 0.3, -14, 15, 5, -0.8, 2.5
COCC#Cc1cnc2c(c1)C(=O)N([C@H](C)CO)C[C@H](C)[C@@H](CN(C)C(=O)c1ccc(F)cc1)O2
  x, i, x, -5.9, x, 1, 2, -0.8, x
CCCN1Cc2cccc(C(=O)NC(CC(=O)OCC)c3ccc(OCC)c(OC)c3)c2C1=O (centres undefined)
  0.67, i, x, 1.5, -8, 3, 1, 0.5, -4.4
O=C(O)c1ccc(CSc2nc3ccccc3c(=O)n2-c2ccccc2)cc1
  0.69, i, x, 0.9, x, -31, -52, -4.7, -4.8
COc1cc(NS(=O)(=O)c2ccc(Nc3nc(-c4cccc([N+](=O)[O-])c4)cs3)cc2)nc(OC)n1
  0.65, i, -7%, 1.9, 13, -12, -15, 6.3, 0.2
COc1cccc(S(=O)(=O)N(C)C[C@@H]2Oc3cc(Br)ccc3S(=O)(=O)N([C@@H](C)CO)C[C@@H]2C)c1
  x, i, x, 1.7, x, -10, -22, -3.0, 5.1
O=C(Cn1nnc(-c2ccc(Cl)cc2)n1)NCCC1=CCCCC1
  0.68, i, -3%, -25, -1, -2, -9, -3.1, -2.1
CC(O)Cc1cn([C@@H](CCCCNC(=O)OC(C)(C)C)C(=O)N2CCN(C(=O)OC(C)(C)C)CC2)nn1 (some centres undefined)
  x, i, 3%, x, -8, -1, -1, -0.4, -8.5
COc1ccc(-c2nnc3ccc(SCC(=O)Nc4nccs4)nn23)cc1OC
  0.68, i, x, -1.7, 15, -3, -6, -4.5, 3.4
CCN(CC)CCN1CCN(c2cnc(C)cn2)CC1
  x, i, x, -0.1, x, 10, 6, 3.7, -3.5
CC(C)NC(=O)Nc1ccc2c(c1)C(=O)N(C)[C@H]1CC[C@@H](CC(=O)NCc3ccc(F)cc3)O[C@H]1CO2
  x, i, x, 0.2, x, -4, 0, -1.6, x
O=C(NCc1cccc(F)c1)[C@@H]1[C@@H](CO)[C@@H]2Cn3c(ccc(-c4ccccc4)c3=O)[C@H]1N2CC1CC1
  x, i, x, 0.3, x, -7, -9, 0.8, x
O=[N+]([O-])c1ccc2oc(C(O)c3cccc(Cl)c3)cc2c1 (centres undefined)
  0.63, i, 1%, 7.1, -7, -38, -32, -1.4, -1.1
CC(C)NC(=O)N(C)C[C@@H]1Oc2ccc(NC(=O)CCCN(C)C)cc2C(=O)N([C@@H](C)CO)C[C@@H]1C
  x, i, x, -0.8, x, 4, 11, -2.0, x
COc1ccc(/C=C/C(=O)N2CCCc3ccccc32)c(OC)c1
  0.64, i, x, 11, -3, -24, -47, 1.8, 3.6
COCCN(CCOC)C(=S)Nc1cc(S(=O)(=O)N(C)C)ccc1C
  0.68, i, -11%, -10, -63, 1, 4, -0.7, 0.6
Cc1cccc(C(=O)OCC(=O)NCCNC(=O)COC(=O)c2cccc(C)c2C)c1C
  0.71, i, x, 3.5, -2, 14, 4, 0.5, 0.4
CCN(CC(=O)Nc1c(F)cccc1F)C(=O)c1ccc(N2C(=O)c3ccccc3C2=O)cc1
  0.73, i, -2%, -1.8, -2, 8, 8, 2.5, 5.7
Cc1ncc([N+](=O)[O-])n1CC(=O)Nc1ccc(F)cc1F
  0.63, i, 5%, 0.1, -1, 13, 10, 0.4, -2.2
O=C(CCc1cnccn1)NC1CCCc2c1cnn2-c1ccc(F)cc1F (centres undefined)
  0.7, i, 3%, -1.1, -4, 13, 7, -1.1, 1.0
Cc1cccc(-n2cc3c(=O)n(C)c(=O)n(C)c3c2)c1
  0.66, i, 7%, 0.8, 7, 12, 1, -0.6, -0.4
O=c1cc(-c2ccc(F)cc2)[nH][nH]1
  0.68, x, 11%, x, 43, x, x, x, 3.4
C[C@H](CO)N1C[C@H](C)[C@H](CN(C)S(=O)(=O)c2ccc(F)cc2)Oc2ccc(NC(=O)C3CCCCC3)cc2CC1=O
  x, i, x, -7.7, x, -3, -5, 3.2, x
Cc1cc(S(=O)(=O)Nc2ccc(C(=O)NCC(c3ccco3)N3CCCC3)cc2)ccc1F (centres undefined)
  0.68, i, -3%, 0.8, 1, 2, -13, 4.3, 2.5
Cc1cccn2c(=O)c3cc(C(=O)NC4CCCC4)c(=N)n(CCc4ccccc4)c3nc12
  0.67, i, x, -4.5, x, 3, 5, -5.9, 1.3
C/C=C/c1ccc([C@H]2[C@@H](C#N)N(c3nc(CC)cs3)[C@H]2CO)cc1
  x, i, x, -1.2, x, 1, -28, -6.4, x
COc1ccc(CCC(=O)NNC(=O)Nc2ccc(C(C)C)cc2)cc1
  0.72, i, x, -2.5, -7, 7, 4, 1.2, 1.5
O=C(/C=C/c1cccnc1)c1cc(F)ccc1O
  0.64, i, x, 1.0, x, 2, -2, -5.9, -0.6
C[C@@H]1CN([C@@H](C)CO)C(=O)c2cc(NC(=O)CCCN(C)C)ccc2O[C@@H](C)CCCCO[C@H]1CN(C)Cc1ccc(C(F)(F)F)cc1
  x, i, x, 10, x, 7, 2, 2.8, x
C[C@@H]1CN([C@H](C)CO)C(=O)CCCn2cc(nn2)CO[C@H]1CN(C)S(=O)(=O)c1ccc(-n2cccn2)cc1
  x, i, x, 0.1, x, 3&-1, 4&1, 4.0&1.3, -0.7
C[C@H]1CCCCO[C@@H](CN(C)Cc2ccncc2)[C@@H](C)CN([C@@H](C)CO)C(=O)c2cc(NS(=O)(=O)c3cccs3)ccc2O1
  x, i, x, 3.8, x, 0, -6, -0.2, x
COc1cc(SC)ccc1C(=O)N1CCN(c2ccccc2F)CC1
  0.67, i, -4%, -3.0, -6, -24*, -9.1*, -4.0*, -3.8

Single records, as listed above. Order of values: Ecoli growth	FGF22 binding	Vif A3G	AF4-AF9 inh	ALR inh	rRNA inh HTS	rRNA inh HTS OD600	rRNA inh HTS RFP	HNF4A DNA FP
Profile of C[C@@H]1CN([C@@H](C)CO)C(=O)c2cc(NC(=O)CCCN(C)C)ccc2O[C@@H](C)CCCCO[C@H]1CN(C)Cc1ccc(C(F)(F)F)cc1 → x	i	x	10	x	7	2	2.8	x
Profile of COc1cc(SC)ccc1C(=O)N1CCN(c2ccccc2F)CC1 → 0.67	i	-4%	-3.0	-6	-24*	-9.1*	-4.0*	-3.8

(continued)
The line under a structure holds: Ecoli growth, FGF22 binding, Vif A3G, AF4-AF9 inh, ALR inh, rRNA inh HTS, rRNA inh HTS OD600, rRNA inh HTS RFP, HNF4A DNA FP
COCCn1c(C)cc(/C=C(\C#N)C(=O)OC(C)C(=O)Nc2ccc(NC(C)=O)cc2)c1C (centres undefined)
  0.64, i, -2%, -23, -50, 13, 12, 0.9, 9.8
C[C@H]1CCCCO[C@@H](CN(C)C(=O)Nc2ccc(F)cc2)[C@@H](C)CN([C@@H](C)CO)C(=O)c2cc(NC(=O)Nc3ccc(C(F)(F)F)cc3)ccc2O1
  x, i, x, -10, x, 4, 9, -3.6, x
COc1cccc(-c2nc(CS(=O)(=O)CC(=O)NCCc3ccccc3)c(C)o2)c1
  0.7, i, x, 0.9, 9, 15, 23, 1.2, 1.1
O=S(=O)(NC1CCCCC1N1CCCCC1)c1ccccc1 (centres undefined)
  0.67, i, -5%, 2.5, -2, 15, 5, 7.4, -0.1
Cc1nc2scc(C)n2c(=O)c1S(=O)(=O)N1CCN(c2ccccc2)CC1
  0.74, i, x, 1.1, 74, -4, -4, 1.5, 1.8
CC(=O)N1CCc2cc(S(=O)(=O)NCCCN3CCC(C)CC3)ccc21
  0.66, i, x, -2.6, 3, 3, 13, -3.2, -1.8
c1ccc(-c2nc(NCCCn3ccnc3)c3ccccc3n2)cc1
  x, i, 20%, 5.1, -4, -25, -63, 3.7, -4.7
CCOC(=O)c1sc(-c2cccc(C(F)(F)F)c2)nc1O
  0.62, i, 23%, -1.7, 33, -8, 1, 4.1, -0.7
COc1ccc(Cc2[nH]n3c(=O)cc(C(C)C)nc3c2-c2ccccc2)cc1
  0.66, i, -3%, -7.9, -2, 1, -11, -9.5, -4.1
COc1ccc(-c2nnc(NC(=O)C3CC3)o2)cc1
  0.68, x, 1%, -0.1, -7, 9, 8, -1.1, -0.2
COc1ccccc1NC(=O)/C=C/c1ccc2c(c1)OCO2
  0.68, i, u, 0.9, x, -19, -7, 4.4, 1.2
O=c1cc(N2CCN(c3ccccc3)CC2)[nH]c(=O)n1-c1ccccc1Cl
  0.72, i, 6%, -23, 63, x, x, x, 1.9
O=C(CSc1nnc2c(n1)[nH]c1ccccc12)OCc1ccccc1
  0.76, x, -2%, x, -7, x, x, x, -3.7
COc1ccc(OCCCC(=O)OCC(=O)c2ccc3c(c2)NC(=O)CO3)cc1
  0.69, i, 1%, -0.8, -3, 8, 10, 3.0, 1.1
CN(C[C@H]1N[C@@H](CO)[C@@H]1c1ccc(-c2cccc(F)c2)cc1)S(C)(=O)=O
  x, i, x, -0.8, x, 2, -14, -1.1, x
CC(Oc1ccccc1F)C(=O)NNC(=O)c1ccc(-n2cncn2)c([N+](=O)[O-])c1 (centres undefined)
  0.69, i, 0%, -0.7, x, 8, 11, 0.9, -0.1
COc1ccc(NC(=O)N2C[C@@H](O)COC[C@H]3O[C@H](CC(=O)N4CCN(C)CC4)CC[C@@H]32)cc1
  x, i, x, -2.6, x, 2, 6, -4.6, x
